# From PubChem
# GIV Gai3 FP: inhibitors of GIV peptide binding to Galpha-i3, primary screen, biochemical, fluorescence polarization, FITC-GIV GBA peptide, rat Galphai3. AID 1224905, 2016. 90 min; hits give low values; scaled: aluminum fluoride 0%, vehicle 100%. Guanine nucleotide-binding protein G(i) subunit alpha-3 (Rattus norvegicus), P08753. percent of control (FP), % (concentration not given with the values). 210,000 tested, 0.42% active;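 active means replicate mean at 85% of control or lower, very high polarization wells dropped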;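 further: wells of about 15 µL received 100 nL stock; the first replicate is given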
# Target sequence (P08753 whole entry, looked up): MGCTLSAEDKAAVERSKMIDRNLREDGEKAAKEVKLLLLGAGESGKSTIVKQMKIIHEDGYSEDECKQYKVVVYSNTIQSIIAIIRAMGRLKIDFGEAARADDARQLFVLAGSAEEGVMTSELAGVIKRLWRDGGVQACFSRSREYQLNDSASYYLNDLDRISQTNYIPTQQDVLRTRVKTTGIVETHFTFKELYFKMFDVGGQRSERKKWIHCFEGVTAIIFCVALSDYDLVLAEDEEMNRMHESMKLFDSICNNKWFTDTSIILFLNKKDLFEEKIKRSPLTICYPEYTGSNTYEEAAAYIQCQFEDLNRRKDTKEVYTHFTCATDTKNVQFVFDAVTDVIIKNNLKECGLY
# Sa growth 42C: S. aureus growth inhibition at 42 and 30 °C, primary screen, LtaS inhibitor project, RN4220, two temperatures. OD600, 20 h, 42 °C; hits give low values. relative growth, % (no concentration beside the values). 170,000 tested, 0.53% active;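 active means growth at 42 °C up to 50% and 20 or more points under that at 30 °C, or under 10% at both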;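 further: 300 nL library stock went into each well; scaled to the means of positive and negative controls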
# HCMV UL50-53 inh: inhibitors of HCMV UL50-UL53 interaction, biochemical, HTRF; HCMV UL50-UL53 nuclear egress complex (human cytomegalovirus); inhibition, % (concentration not given with the values); normalized percent inhibition; 190,000 tested, 0.15% active;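 active means both replicates at 50% or more, plus weaker picks with an unusually low signal ratio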;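 further: stock transfer was 100 nL into about 20 µL; 0% = negative control wells and 100% = wells with untagged competitor protein; inactives centre near -12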
# Sa growth 42C second temp: recorded beside Sa growth 42C, whose call it bears; relative growth, %; measured here: growth at 30 °C;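 optical density after 20 h as mean of two plates; 100% = untreated growth and lower means inhibition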
# * marks the source's active call; other numbers are inactive results; . = no result given; & = joins results of further samples. Rows are unselected, and some 0.8% of all compounds hit somewhere here.
SMILES,GIV Gai3 FP,Sa growth 42C,Sa growth 42C second temp,HCMV UL50-53 inh
CCCCc1nn2c(=O)cc(COC(=O)c3cccc(NC(=O)c4cccc(C)c4)c3)nc2s1,103,82,78,.
COc1ccccc1NC(=O)N1CCCN(Cc2ccc(F)cc2)CC1,106,88,92,-14
COc1ccc(NC(=O)c2ccc(N3C(=O)C4CC=C(Cl)CC4C3=O)cc2)cc1 (stereo not drawn),106,.,.,7
O=C1CCC(=O)N1OCC1CCCN2CCCCC12 (stereo not drawn),.,95,109,-4
CCCCC(c1nnnn1C(C)C)N1CCN(c2ccc(F)cc2)CC1 (stereo not drawn),99,109,89,-16
Cc1cc(C(F)(F)F)nn1Cc1ccc(C(=O)O)cc1,.,112,86,-18
O[C@@H]1CC2C3C[C@H](O)C4C3CC2C41 (stereo partly drawn),101,100,93,-34
CCCc1cnc2c(c1SCc1cccc(C)c1)c(=O)n(C)c(=O)n2C,102,109,93,.
CCCCCC1C(O)CCC1CC(=O)OC (stereo not drawn),.,88,96,-9
COc1ccc(-c2cc3c(=O)n(CC(=O)Nc4cc(F)ccc4F)ccn3n2)cc1OC,103,106,106,.
Cc1ccc(Cn2c(=O)n(CCc3ccc(Cl)cc3)c(=O)c3ccccc32)cc1,102,96,90,5
CC1CCCCN1C(=O)c1ccc2c(c1)N(Cc1ccc(Cl)cc1)C(=O)c1ccccc1S2=O (stereo not drawn),106,94,76,18

# Record cards (already shown):
# Shown for `O[C@@H]1CC2C3C[C@H](O)C4C3CC2C41` (stereo partly drawn) → GIV Gai3 FP = 101; Sa growth 42C = 100; Sa growth 42C second temp = 93; HCMV UL50-53 inh = -34
# Shown for `CCCCc1nn2c(=O)cc(COC(=O)c3cccc(NC(=O)c4cccc(C)c4)c3)nc2s1` → GIV Gai3 FP = 103; Sa growth 42C = 82; Sa growth 42C second temp = 78; HCMV UL50-53 inh = .
# Shown for `CCCCC(c1nnnn1C(C)C)N1CCN(c2ccc(F)cc2)CC1` (stereo not drawn) → GIV Gai3 FP = 99; Sa growth 42C = 109; Sa growth 42C second temp = 89; HCMV UL50-53 inh = -16

# Looked up above:
# Result of `CCCCC(c1nnnn1C(C)C)N1CCN(c2ccc(F)cc2)CC1` (stereo not drawn) under HCMV UL50-53 inh: -16
# Result of `CCCCc1nn2c(=O)cc(COC(=O)c3cccc(NC(=O)c4cccc(C)c4)c3)nc2s1` under Sa growth 42C second temp: 78
# Result of `CCCCCC1C(O)CCC1CC(=O)OC` (stereo not drawn) under HCMV UL50-53 inh: -9
# Result of `COc1ccc(NC(=O)c2ccc(N3C(=O)C4CC=C(Cl)CC4C3=O)cc2)cc1` (stereo not drawn) under GIV Gai3 FP: 106

# (listing goes on)
SMILES,GIV Gai3 FP,Sa growth 42C,Sa growth 42C second temp,HCMV UL50-53 inh
COC(=O)NCC(c1cccnc1)N1CCN(c2ccccc2)CC1 (stereo not drawn),104,97,88,-38
N=C1/C(=C/c2cccn2-c2ccc(Br)cc2)C(=O)N=C2SC=CN12,133,113,57,.
C=CCn1c(=O)c2ccc(C(=O)NCc3ccc4c(c3)OCO4)cc2n(Cc2ccc(F)cc2Cl)c1=O,95,.,.,-23
COc1ccccc1C(=O)NC1CCN(C)CC1,102,112,106,-7
COc1ccccc1CNC1CCCC1,98,89,84,-21
CCOC(=O)c1nc(N)nc(Nc2ccccc2)n1,106,104,100,6
Cc1ncc(CO)c2cc(C(=O)Nc3ccccc3S(N)(=O)=O)c(=O)oc12,104&97,85,84,-133&-109
CC(C)Nc1nc2cc(Cl)ccc2s1,98,135,47,-4
CCn1nccc1C1CCCN1C(=O)Nc1ccc2c(c1)OCCO2 (stereo not drawn),102,.,.,-26
CN(c1ccc(F)cc1)S(=O)(=O)N1CCCC(C(=O)NCCc2c[nH]c3ccccc23)C1 (stereo not drawn),100,.,.,17
O=C(c1cccc(N2C(=O)C3C4C=CC(C4)C3C2=O)c1)N1CCN(c2ccccc2F)CC1 (stereo not drawn),102,93,83,-20
O=S(=O)(c1ccccc1)c1nc(-c2cccs2)oc1NCc1cccnc1,.,79,93,-63
Cc1cc(S(=O)(=O)N(C)Cc2ccccc2)ccc1-n1cnnn1,103,97,80,-17
CCOc1ccccc1NC(=O)CCN1C(=O)NC2(CCCC2)C1=O,.,92,93,-28
COCCOC(=O)C1=C(C)NC2=C(C(=O)CC(c3ccc(OC)c(OC)c3)C2)C1c1ccc(OC)c(OC)c1 (stereo not drawn),99,.,.,-20
O=C(CN1C(=O)CSc2ccc(C(=O)N3CCCC3)cc21)Nc1ccccc1Cl,108,.,.,-10
O=C(NC1CCCC1)c1ccc(CSc2nc3ccncc3n2Cc2ccc(F)cc2)cc1,107,112,84,-31
Cc1ccc(Nc2nc(COC(=O)c3ccc(-n4cnnn4)cc3)cs2)cc1,.,80,93,-22
N#CCN(CC#N)C(=O)c1cccs1,102,111,105,9
O=C(CCC(=O)N1CCc2cc(S(=O)(=O)N3CCc4ccccc43)ccc21)N1CCCCC1,100,.,.,-39
CSc1ncc(C(=O)Nc2cc(C)cc(C)c2)c(-c2ccccc2)n1,101,87,91,.
O=C(c1[nH]nc2c1CCc1ccccc1-2)N1CCc2[nH]nc(-c3ccc(Cl)cc3)c2C1,104,.,.,-5
COc1ccc(/C(C)=N/NC(=O)c2ccc(CN3CCOCC3)cc2)cc1,101,90,87,-31
O=C(C1CCC(=O)N1S(=O)(=O)c1ccccc1)N1CCN(c2ccccc2)CC1 (stereo not drawn),113,.,.,-2
CC(=O)N(CN1C(=O)c2ccccc2C1=O)c1ccccc1,97,96,84,-10
O=C(O)c1ccccc1NCc1ccc2c(c1)OCO2,106,105,88,-8
COc1cccc(C2=NOC(C(=O)NC(C)C)C2)c1 (stereo not drawn),106,102,95,-6
CCC(=O)Nc1nc2ccccc2n1CCN(C)C,101,97,83,-10
COc1ccc(S(=O)(=O)Nc2ccc(-c3ccc(N4CCOCC4)nn3)cc2)c(OC)c1,98,.,.,-45
COc1ccc(NC(=O)C2=C(C)Nc3nc(SCc4ccccc4)nn3C2c2cc(OC)ccc2OC)cc1 (stereo not drawn),100,92,85,.
O=C(CSc1ccccc1C(=O)Nc1ccccc1N1CCCC1)NCc1ccco1,.,97,93,-16
O=c1oc(-c2ccccc2)cc(Cl)c1Cl,96,100,68,-56
Cc1cc2c(cc1S(=O)(=O)N1CCCC(C(=O)NC3CCCCC3)C1)OC(C)C(=O)N2 (stereo not drawn),101,.,.,-6
CCc1ccc(S(=O)(=O)c2nnn3c2nc(NCCc2ccccc2)c2sccc23)cc1,100,101,87,.
c1ccc(-c2noc(C3COc4ccccc4O3)n2)cc1 (stereo not drawn),99,.,.,-1
COC(=O)c1ccc(C(=O)Nc2ccc(C(F)(F)F)cc2)nc1,102,105,105,25
Cc1cccc(C)c1OCCN1C(=O)c2ccccc2C1(O)c1ccccc1 (stereo not drawn),.,106,102,-3
CC(C)N(C(=O)N1CCN(c2ccnc3cc(Cl)ccc23)CC1)C(C)C,101,101,88,-32
O=C(Cn1ncc2c3ccccc3n(Cc3ccc(Cl)cc3)c2c1=O)NC1CC1,175,80,82,0
CCc1ccc(CNC(=O)c2ccc3c(c2)c(C)c(C)n3Cc2ccccc2)cc1,106,96,97,.
COc1cccc2cc(C(N)=O)/c(=N/c3sc4c(c3C(N)=O)CCCC4)oc12,101,.,.,-13
O=C(CCCN1C(=O)CSc2ncccc21)NC1CC1,99,.,.,-20
C=CCn1c(CCCN2C(=O)c3cccc4cccc(c34)C2=O)nnc1SCC(=O)OCC,104,.,.,-106
COc1ccc(OC)c(-c2n(C)c3ccccc3[n+]2C)c1,.,80,74,6
O=C(Cn1nnc(-c2ccccc2)n1)Nc1ccccc1,.,111,87,-15
CCOC(=O)N1CCC(NC(=O)C(NC(=O)C2CCCCC2)C(C)C)CC1 (stereo not drawn),95,77,85,-24
CCOC(=O)N1CCc2c(sc3c2c(=O)n(-c2ccc(CC)cc2)c(=O)n3Cc2cc(C)ccc2C)C1,102,106,90,-30
CC1CCCN(C(=O)Cn2c(=O)n(CC3CCC(C(=O)NC(C)C)CC3)c(=O)c3sccc32)C1 (stereo not drawn),108,106,103,.
Cc1ccc(Cl)cc1NC(=O)Cn1c(=O)n(CCCS(=O)(=O)C2CCCCC2)c(=O)c2ccccc21,106,101,92,-13
Cc1ccc(C(=O)OCC(N)=O)cc1C,.,112,101,-3
O=C(Cc1ccc(-n2c(=S)[nH]c3ccccc3c2=O)cc1)NCCc1ccccc1,102,109,91,.
c1ccc(CNCCCSc2ncccn2)cc1,104,92,74,-13
CCOC(=O)N1CCN(Cc2nc3cc(NC(=O)c4ccccc4OC)ccc3n2C(C)C)CC1,101,105,80,9
COc1cc(NC(=O)N2CCC(CN3CCCC3)CC2)cc(OC)c1OC,104,120,85,.
CN(C)CCNC(=O)C(=O)NCC(c1cccnc1)N1CCN(c2ccc(F)cc2)CC1 (stereo not drawn),105,113,89,-7
COc1ccc(NC(C)C(=O)N2CCOCC2)c(OC)c1 (stereo not drawn),.,101,91,-25
COC(=O)c1sccc1S(=O)(=O)N1CCN(c2ccc(C(C)=O)cc2)CC1,107,89,91,.
S=C(NCCN1CCOCC1)Nc1ccccc1,97,92,90,-7
Cc1ccc(NC(=O)C(Cc2ccccc2)NS(=O)(=O)c2ccc3c(c2)CCC(=O)N3)cc1 (stereo not drawn),108,104,104,4
Cc1ccc2nc(-c3ccc(O)cc3O)cn2c1,.,91,92,-12

# Of the compounds above, 2 have a COOH group:
SMILES,GIV Gai3 FP,Sa growth 42C,Sa growth 42C second temp,HCMV UL50-53 inh
Cc1cc(C(F)(F)F)nn1Cc1ccc(C(=O)O)cc1,.,112,86,-18
O=C(O)c1ccccc1NCc1ccc2c(c1)OCO2,106,105,88,-8

# Other compounds:
SMILES,GIV Gai3 FP,Sa growth 42C,Sa growth 42C second temp,HCMV UL50-53 inh
CCOC=Nc1c(C(=O)OCC)sc2nc(SC)ncc12,113,93,90,-51
CC(C)c1ccc(CNc2nc(-c3ccco3)nn2S(=O)(=O)c2ccccc2)cc1,100,99,82,-16
CCc1ccc(C2=C(C)C(=O)N(CC(=O)Nc3ccc(Br)c(C)c3)S2(=O)=O)cc1,97,.,.,-20
NC(N)=Nc1nc2cc(Cl)ccc2o1,110,91,80,-30
Cc1ccc(OCCSc2nc3ccccc3n2CC(=O)NC(C)C)cc1,98,113,92,2
S=C(NC1CCCCC1)N(Cc1ccccc1)CC1CC=CCC1 (stereo not drawn),96,89,63,.
CCOC(=O)CSc1nc2sc3c(c2c(=O)n1Cc1ccccc1)CCN(C)C3,107,.,.,-23
COc1ccc(OC)c(NC(=O)CNC(=O)Cn2cnc3ccccc3c2=O)c1,102,86,94,2
COc1ccc(NC(=O)c2cc3n(n2)C(C(F)(F)F)CC(c2ccc(OC)c(OC)c2)N3)cc1OC (stereo not drawn),91,.,.,-8
CS(=O)(=O)Nc1cc(-c2nnc(Nc3ccccc3)c3ccccc23)ccc1N1CCOCC1,104,90,85,.
O=C(CC(C(=O)N1CCc2ccccc21)n1ccnc1)NC1CCCC1 (stereo not drawn),105,81,85,-28
COc1ccc(-c2nn3c(-c4cc(C(C)C)[nH]n4)nnc3s2)c(OC)c1,107,.,.,-13
Cc1ccc(C(=O)C(NC(=O)c2ccco2)Nc2ccc(C)c(Cl)c2)cc1 (stereo not drawn),106,113,104,-13
CCCS(=O)(=O)N1CCN(c2cc(N(C)C)nc(C)n2)CC1,102,.,.,-36
CC1CCCN(S(=O)(=O)c2ccc3[nH]c(=O)cc(C(=O)NCCc4ccccc4)c3c2)C1 (stereo not drawn),107,107,90,-16
Cc1cc(C(=O)Nc2ccc(-n3c(C)nc4ccccc4c3=O)cc2)ccc1[N+](=O)[O-],95,103,96,.
COc1cccc(C(=O)Nc2ccc(-c3nc4ccc(C)cc4s3)cc2)c1OC,104,109,94,.
Cc1ccsc1CNn1cnnc1SCc1ccc(Cl)cc1,.,58,74,-11
CC(C)(CNc1ccc(S(=O)(=O)N2CCCC2)cn1)N1CCCCC1,.,97,102,-1
c1ccc(-c2nc(-n3ccnc3)nc(-n3ccnc3)n2)cc1,100,77,49,-1
NC(=O)COC(=O)c1ccc(Br)o1,.,121,81,-33
CN1CCN(NC(=O)CCN2C(=O)/C(=C\c3ccccc3)SC2=S)CC1,103,82,96,.
CCC(C)NC(=O)CN(C)S(=O)(=O)c1ccc2c(c1)CCCC(=O)N2 (stereo not drawn),108,.,.,-13
Cn1c(=O)c2nc(SCC(=O)Nc3cc(Cl)cc(Cl)c3)n(C)c2n(C)c1=O,104,106,100,.
CCc1ccc(C(=O)c2cn(CC(=O)Nc3ccc(C(C)C)cc3)c3ccccc3c2=O)cc1,96,.,.,6
CC(C)C1N=C2c3ccccc3N=C(SCc3ccccc3F)N2C1=O (stereo not drawn),101,104,83,.
CCOC(=O)c1ccc2c(c1)NC(=O)CO2,102,.,.,6
COc1ccc(CCNC(=O)CSc2nc(N)cc(N)n2)cc1,.,94,84,-24
CCOC(=O)C(O)C(C)(C)CN1C(=O)c2ccccc2C1=O (stereo not drawn),97,79,92,-72
O=C(NCCNc1ncnc2scc(-c3ccccc3)c12)c1cccs1,96,100,83,.
CSc1nsc(SC)c1C#N,101,90,79,-18
Cc1ccc(CN2CCC(CNC(=O)Nc3cc(C)cc(C)c3)C2)cc1 (stereo not drawn),102,87,81,-14
